Assay outcomes (PubChem)
VDR inh – inhibitors of human vitamin D receptor; P11473; 400,000 compounds, 0.93% hits; Potency, µM, inactives show max response, negative = inhibition, hits mostly inhibitors; VDR-SRC2-3 peptide fluorescence polarization, 2 h; active = well fitted inhibition curve with a large enough effect; inconclusive = small, poorly fitted or top-dose-only effect, or another doubt; inactive = no such curve, though single readings can be large or run the other way; note: series mostly up to about 120 µM
Target sequence (P11473 whole entry, looked up): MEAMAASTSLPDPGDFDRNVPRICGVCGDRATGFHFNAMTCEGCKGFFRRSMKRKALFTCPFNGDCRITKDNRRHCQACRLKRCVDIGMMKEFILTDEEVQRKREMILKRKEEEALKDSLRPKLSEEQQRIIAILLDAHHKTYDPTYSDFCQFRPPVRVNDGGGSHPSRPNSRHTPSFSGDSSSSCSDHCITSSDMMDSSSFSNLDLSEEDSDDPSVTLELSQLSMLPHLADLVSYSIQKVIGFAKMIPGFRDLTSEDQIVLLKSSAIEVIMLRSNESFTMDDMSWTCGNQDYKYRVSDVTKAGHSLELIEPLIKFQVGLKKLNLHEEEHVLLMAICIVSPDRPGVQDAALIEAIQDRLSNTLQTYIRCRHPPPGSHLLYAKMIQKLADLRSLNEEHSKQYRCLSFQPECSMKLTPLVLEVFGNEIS
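Two reagent solutions held at 4 deg C in the dark were dispensed, compounds pinned at 23 nl, and the mixture incubated 2 h at room temperature. Read-out: fluorescence polarization of VDR–SRC2-3 peptide binding.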
Numbers without * were called inactive; ? = inconclusive; & = joins results of further samples. % is set by controls: 0 for no effect and ±100 for the full control effect; potency is the fitted concentration of half-maximal effect.

No. | compound | VDR inh
1 | CC(C(=O)NC1C=CS(=O)(=O)C1)N1C(=O)/C(=C\c2ccccc2)SC1=S (centres undefined) | 8%
2 | O=C1/C(=C/c2ccc(O)c(O)c2)Oc2ccccc21 | ?
3 | O=c1[nH][nH]c2nc(C(F)(F)F)cc(C(F)(F)F)c12 | -3%
4 | COC(=O)C1CCN(C(=O)COC(=O)CCc2nc3ccccc3c(=O)[nH]2)CC1 | -9%
5 | O=C(COC(=O)CNC(=O)c1ccco1)NCc1ccc(F)cc1 | 10%
6 | CC(C)CCNC(=O)c1onc(CSc2ccc(Cl)cc2)c1C(=O)NCCC(C)C | -9%
7 | CCOC(=O)c1ccc(NC(=O)CC2C(=O)N(c3cccc(OC)c3)C(=O)N2Cc2cccnc2)cc1 (centres undefined) | -4%
8 | COc1ccc(C(=O)N2CC(=O)Nc3ccc(C)cc3C2c2ccc(F)cc2)c(OC)c1 (centres undefined) | 1%
9 | Cc1cccc(N2CCN(S(=O)(=O)c3cc(C(=O)Nc4ccccc4Cl)ccc3F)CC2)c1C | 13%
10 | COc1ccc(Cc2nnc(SCC(=O)Nc3nc(C)cs3)o2)cc1 | -11%
11 | COc1cccc(N(CC(=O)N2CCOCC2)S(C)(=O)=O)c1 | -20%
12 | COc1ccc(N2C(=O)C(CC(=O)O)S/C2=C\C(C)=O)cc1 (centres undefined) | 19%
13 | CCOc1ccc(NC(=O)c2ccc(F)c(S(=O)(=O)N(Cc3ccc(C(=O)OC)cc3)Cc3ccc(OC)c(OC)c3)c2)cc1 | 10%
14 | COc1ccc(C(CC(=O)O)NC(=O)c2cc3ccccc3oc2=O)cc1OC (centres undefined) | -8%
15 | O=c1c2oc3ccccc3c2n(Cc2cccc(F)c2)c(=O)n1Cc1ccc2c(c1)OCO2 | 1%

Filtered by structure, the entries above containing an NH in an aromatic ring
No. | compound | VDR inh
3 | O=c1[nH][nH]c2nc(C(F)(F)F)cc(C(F)(F)F)c12 | -3%
4 | COC(=O)C1CCN(C(=O)COC(=O)CCc2nc3ccccc3c(=O)[nH]2)CC1 | -9%

Additional entries follow:
No. | compound | VDR inh
16 | COc1ccc(NC(=O)Cc2ccsc2)cc1S(=O)(=O)N1CCOCC1 | -15%
17 | COc1ccc(OC)c(CCNC(=O)c2ccc3c(c2)N(Cc2ccccc2)CCS3)c1 | 19%&-8%
18 | CC(NC(=O)c1ccccc1F)c1cccc2ccccc12 (centres undefined) | -16%
19 | O=c1oc2ccc(Br)cc2cc1-c1csc(-c2ccc(Cl)cc2)n1 | 10%
20 | COc1ccc(S(=O)(=O)N2CCN(C(=O)c3ccccn3)CC2)cc1 | 2%
21 | COc1cccc(-c2nc(NCc3ccc(OC)cc3OC)c3ccccc3n2)c1 | -12%
22 | CCOc1ccc(S(=O)(=O)NCc2cccnc2)c2ccccc12 | -4%
23 | COc1ccc(S(=O)(=O)Nc2cccnc2)cc1 | -23%
24 | CS(=O)(=O)c1ccc2nc(NC(=O)C3C4C=CC(C4)C3C(=O)O)sc2c1 (centres undefined) | 2%
25 | Cc1ccc(-n2c3nc(=O)[nH]c(=O)c-3cc3c(C)nn(-c4ccccc4)c32)cc1Cl | -5%
26 | CCC(=O)N1CCc2cc(S(=O)(=O)CCC(=O)Nc3ccc(C(C)=O)cc3)ccc21 | 12%
27 | CCOc1cc(/C=N\NC(=O)CC(=O)NCCc2ccccc2)ccc1O | -7%
28 | O=C(CCSc1ccccc1Cl)Nc1cccc([N+](=O)[O-])c1 | 2%
29 | O=C(O)/C(=C\c1cccc(OCc2ccccc2)c1)c1ccc(F)cc1 | -11%
30 | COC(=O)c1ccc(COC(=O)c2ccccn2)cc1 | 6%
31 | Cc1ccc(N2C(=O)N(Cc3cccc(Cl)c3)c3ccccc3S2(=O)=O)cc1 | 0%
32 | COc1ccc(CNC(=O)C[C@H]2C[C@H](C(=O)N(C(C)C)C(C)C)[C@@]3(C)c4[nH]c5ccc(Cl)cc5c4CCN3C2=O)cc1OC | -28%
33 | O=C(NCc1ccccc1)c1ccc(NC(=O)C2CCCO2)cc1 (centres undefined) | 0%
34 | O=C(O)CSc1ncccn1 | 15%
35 | N#Cc1ccc(-c2ccc(OCC(=O)Nc3cccnc3)cc2)cc1 | 2%
36 | Fc1ccc(NC(=S)N2CCc3ccccc3C2)c(F)c1 | 0%
37 | CCc1ccc2oc(-c3cccc(NC(=O)c4ccc(-c5cccc([N+](=O)[O-])c5)o4)c3)nc2c1 | 4%
38 | O=C(OCc1c(-c2ccccc2)ncc2ccccc12)c1ccccc1C(F)(F)F | -21%
39 | Cc1cccc(OCC(=O)N/N=C/c2cc([N+](=O)[O-])ccc2N2CCOCC2)c1 | -14%
40 | Cc1ccccc1NC(=S)NCc1ccc(Cl)cc1 | -17%
41 | C=CCNC(=O)c1ccc(C)cc1Cl | -4%
42 | O=C(NNS(=O)(=O)c1ccccc1)c1ccc(O)cc1 | -10%
43 | COC(=O)c1ccc(NC(=O)c2cn(-c3cccc(C)n3)cn2)cc1 | -2%
44 | CC(C)(C)OC(=O)N1CCCC(C(=O)Nc2cccc(C(=O)NCCc3ccccc3)c2)C1 (centres undefined) | -1%
45 | CC1CCCCC12NC(=O)N(CC(=O)NCC(=O)Nc1ccc(F)c(F)c1F)C2=O (centres undefined) | 6%

Grouped by structure: the entries above with a CF3 group (2)
No. | compound | VDR inh
3 | O=c1[nH][nH]c2nc(C(F)(F)F)cc(C(F)(F)F)c12 | -3%
38 | O=C(OCc1c(-c2ccccc2)ncc2ccccc12)c1ccccc1C(F)(F)F | -21%

Carrying on.
No. | compound | VDR inh
46 | C=CCn1c(Cc2cccs2)nnc1SCC(=O)Nc1cc(OC)cc(OC)c1 | -18%
47 | NS(=O)(=O)c1ccc(Cc2ncc(C(F)(F)F)cc2Cl)s1 | -8%
48 | O=C(Cn1c(=O)n(-c2cccc(C(F)(F)F)c2)c(=O)c2sccc21)NCC1CCCO1 (centres undefined) | -22%
49 | CCN1CCc2c(sc(-n3cccc3)c2C(C)NC(=O)Nc2ccc(C(=O)OC)cc2)C1 (centres undefined) | 16%
50 | c1ccc(COc2ccc(OCCOCCn3cncn3)cc2)cc1 | -5%
51 | O=C(Cn1[nH]c(=O)c2ccccc2c1=O)NCC1COc2ccccc2O1 (centres undefined) | 7%
52 | COc1ccc(NC(=O)CN(C)S(=O)(=O)c2ccc3nc(C)sc3c2)cc1Cl | 0%
53 | O=C(NN=C1CCC(c2ccccc2)CC1)c1cc2c(s1)CCCC2 (centres undefined) | 8%
54 | Cc1cc(C)nc(/N=C(\N)Nc2ccc(C(C)C)cc2)n1 | 23%
55 | CN(C)/C=C(/C(=O)c1ccc(Cl)cc1Cl)S(=O)(=O)c1ccc(Cl)cc1 | -5%
56 | COc1ccc(Cn2cc(C(=O)c3ccc(C)cc3)c(=O)c3cc(OC)c(OC)cc32)cc1 | -8%
57 | CCN1C(=O)/C(=C\c2nc3ccccc3c(=O)n2CC)c2ccccc21 | -15%
58 | O=C(Cn1cc(C(=O)c2ccco2)c2ccccc21)Nc1ccccc1F | -7%
59 | Cc1ccc2c(c1)N(CC(=O)NCCCN1CCN(C)CC1)C(=O)CO2 | -3%
60 | Cc1ccc(Oc2ncc(CN3CCOCC3)s2)cc1 | 3%

Ordered by the number under VDR inh (high to low): 3 from the list above.
No. | compound | VDR inh
54 | Cc1cc(C)nc(/N=C(\N)Nc2ccc(C(C)C)cc2)n1 | 23%
53 | O=C(NN=C1CCC(c2ccccc2)CC1)c1cc2c(s1)CCCC2 (centres undefined) | 8%
47 | NS(=O)(=O)c1ccc(Cc2ncc(C(F)(F)F)cc2Cl)s1 | -8%

Next section:
No. | compound | VDR inh
61 | CC1(C)C2CCC1(CS(=O)(=O)NC(CC(=O)O)c1cccc(Br)c1)C(=O)C2 (centres undefined) | -8%
62 | Cc1nnc(Nc2ccc(Cl)cc2)s1 | -4%
63 | O=c1c2ccccc2n2c(-c3ccccc3O)nnc2n1Cc1ccc(F)cc1 | 6%
64 | CC(NC(=O)COC(=O)CNC(=O)c1ccc(-c2ccccc2)cc1)c1ccccc1 (centres undefined) | 13%
65 | COc1ccc(CN(C)C(=O)CCC(=O)N2CCN(S(=O)(=O)c3ccc(Cl)cc3)CC2)c(OC)c1 | 10%
66 | CCN1CCCC1CNS(=O)(=O)c1ccc(Br)cc1 (centres undefined) | 1%
67 | COc1ccc(OCCN2C(=O)NC3(CCc4ccccc4C3)C2=O)cc1 (centres undefined) | -9%
68 | COCCNC(=S)N/N=C(\C)c1ccccc1O | -6%
69 | COc1ccc(CN2CCn3ncc(C(=O)Nc4ccccc4)c3C2=O)cc1 | 7%
70 | CCN(CC)CCOC(=O)c1cccc(Br)c1 | -16%
71 | O=C(Cn1ccc(C(F)(F)F)n1)N=Nc1c(O)[nH]c2ccccc12 | -12%
72 | CN(CC(=O)Nc1cc(C(F)(F)F)ccc1-n1cncn1)Cc1ccccc1N1CCOCC1 | -1%
73 | Cc1cccc(C)c1NC(=O)COn1nnc2ccc(C(F)(F)F)cc21 | 2%
74 | Nc1ncc(S(=O)(=O)N2CCN(c3ccccc3)CC2)cn1 | 17%
75 | CCOC(=O)/C=c1\s/c(=C\c2c(OCC)ccc3ccccc23)c(=O)n1CC(=O)NCC1CCCO1 (centres undefined) | 16%
76 | Cc1nc2ccccc2nc(C)c1=NOCc1cccc(Cl)c1 | -3%
77 | CCOc1ccc(-c2c(=O)n(OCc3nc4ccccc4[nH]3)c3ccccc3[n+]2[O-])cc1 | 7%
78 | Cc1ccccc1CCNC(=O)C1CC(O)CN1C(=O)Nc1ccccc1 (centres undefined) | 21%
79 | O=S(=O)(c1cc(Cl)sc1Cl)N1CCCC1 | -7%
80 | Nn1c(SCC(=O)Nc2ccc3c(c2)OCCO3)nnc1-c1cccnc1 | 0%
81 | CC(=O)N1CCN(C(=S)Nc2ccc(SC(F)F)cc2)CC1 | -6%
82 | O=C(NCc1ccco1)c1cc(-c2ccccc2)nn1CC1CC(c2cccc([N+](=O)[O-])c2)=NO1 (centres undefined) | -11%
83 | O=C(CC12CC3CC(CC(C3)C1)C2)NCC(=O)N1CCCC1 | 9%
84 | O=C(NC1CC1)c1sc2cc(F)ccc2c1Cl | 0%
85 | CCOC(=O)c1c(C)c(C(=O)N2CCN(c3cccc(Cl)c3)CC2)c(C)n1C | -19%
86 | Cn1cc(C=O)c2cc(S(=O)(=O)N3CCOCC3)ccc21 | -13%
87 | CCCN(CCC)C(=O)CSc1nnc2cc(C)c3cc(C)cc(C)c3n12 | 13%
88 | Cc1ccc(S(=O)(=O)N(C)C[C@@H]2Oc3ccc(NS(C)(=O)=O)cc3CC(=O)N([C@H](C)CO)C[C@@H]2C)cc1 | -10%
89 | O=C(COc1ccccc1)NN1C(=O)CSC1=S | 9%
90 | CCn1cc(CNC(=O)C2CCC(=O)N(CCc3cccc(F)c3)C2)cn1 (centres undefined) | -4%
91 | Cc1ccc(NC(c2cccc(Cl)c2)c2nnc(-c3ccccc3)o2)cc1F (centres undefined) | 3%
92 | Cc1cc(C)c(NC(=O)C2CCN(c3nc4ccccc4[nH]3)CC2)c(C)c1 | 5%
93 | COC(=O)c1c(NC(C)=O)sc(C(=O)Nc2ccccc2OC)c1C | -4%
94 | O=C(Nc1cc(F)ccc1F)N1CCC(CN2CCCC2)CC1 | 10%
95 | COc1ccc(C(=O)Nc2ccc3nc4n(c(=O)c3c2)CCCCC4)cc1OC | 12%
96 | Cc1ccc(C(=O)Nc2cccc(C(=O)NCc3ccccc3)c2)o1 | -19%
97 | COc1ccc(Nc2nnc(-c3ccc(N4CCOCC4)c([N+](=O)[O-])c3)c3ccccc23)cc1 | -6%
98 | O=C(Nc1ccc(Cl)cc1)Nn1cnnc1 | -17%
99 | Cc1ccc(NC(=O)Cc2ccc(-n3c(C)nc4cccnc43)cc2)cc1C | 12%
100 | Cc1ccc(-c2cc(C(=O)N/N=C/c3ccc([N+](=O)[O-])o3)c3ccccc3n2)o1 | 18%
101 | Oc1cccc2ccc[n+](CC(O)Cn3c4ccccc4c4ccccc43)c12 (centres undefined) | 4%
102 | COc1ccccc1CNC(=O)CCCCn1c(=O)c2ccccc2n(CC(=O)Nc2c(C)cc(C)cc2C)c1=O | -3%
103 | COc1ccc(-n2nnnc2SCC(=O)NCCc2ccccc2)cc1 | 6%
104 | O=C(COC(=O)c1ccccc1C(=O)c1ccc(Cl)cc1)NCc1ccccc1 | 6%
105 | Cc1cc(=O)oc2cc3c(cc12)OCCO3 | -1%

Values in list order from the entries so far.
VDR inh for entries 34 to 38 → 15%, 2%, 0%, 4%, -21%

Other structures follow.
No. | compound | VDR inh
106 | Cc1nc(C(=O)Nc2ccc(Cl)cc2)sc1C1(C)CC(c2ccccc2)=NO1 (centres undefined) | -11%
107 | CC12COC3(P(=O)(c4ccccc4)c4ccccc4)CC1CCC23CP(=O)(c1ccccc1)c1ccccc1 (centres undefined) | -27%
108 | CCn1cc(C2C3=C(CC(C)(C)CC3=O)N(c3ccc(C)cc3)C3=C2C(=O)CC(C)(C)C3)c(C)n1 | -15%
109 | O=C(Nc1ccc2c(c1)CCCN2C(=O)c1cccs1)c1ccc(F)c(F)c1 | 12%
110 | COc1ccccc1-c1cc(C(=O)Nc2cc(C)nn2-c2ccccc2)no1 | 4%
111 | CSc1ccc(/C=N/NC(=O)C[n+]2ccccc2)cc1 | -5%
112 | O=C(O)c1ccc(N/N=C/c2cccc3nccnc23)cc1 | -20%
113 | COCCn1c(C)cc(C(=O)COC(=O)c2ccc(N3CCCC3=O)cc2)c1C | 9%
114 | CCCCN(C(=O)c1cnccn1)c1c(N)n(CCC)c(=O)[nH]c1=O | 5%
115 | COc1ccc(OC)c(N/C(=N/C(=S)Nc2ccccc2)Nc2nc(C)cc(C)n2)c1 | -5%
116 | CNC[C@H]1Oc2c(NS(=O)(=O)c3ccccc3)cccc2C(=O)N([C@H](C)CO)C[C@@H]1C | -8%

An excerpt, so the mix of outcomes need not match the whole.
